GLA inh pH 4.5: alpha-galactosidase A (human) inhibition, pH 4.5; P06280; purified enzyme, 4-MU-alpha-Gal fluorescence, pH 4.5; activity change, negative = inhibition, % at 105 µM; 230,000 tested, under 10 active; AID 1467; inconclusive = small, poorly fitted or top-dose-only inhibition, or a rising curve; inactive = flat fitted curve, though single readings scatter; no compound was filed as active;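 further: 0% = full activity with enzyme and -100% = basal without enzyme; dose as in the result columns while the protocol names 77 µM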
Target sequence (P06280 whole entry, looked up): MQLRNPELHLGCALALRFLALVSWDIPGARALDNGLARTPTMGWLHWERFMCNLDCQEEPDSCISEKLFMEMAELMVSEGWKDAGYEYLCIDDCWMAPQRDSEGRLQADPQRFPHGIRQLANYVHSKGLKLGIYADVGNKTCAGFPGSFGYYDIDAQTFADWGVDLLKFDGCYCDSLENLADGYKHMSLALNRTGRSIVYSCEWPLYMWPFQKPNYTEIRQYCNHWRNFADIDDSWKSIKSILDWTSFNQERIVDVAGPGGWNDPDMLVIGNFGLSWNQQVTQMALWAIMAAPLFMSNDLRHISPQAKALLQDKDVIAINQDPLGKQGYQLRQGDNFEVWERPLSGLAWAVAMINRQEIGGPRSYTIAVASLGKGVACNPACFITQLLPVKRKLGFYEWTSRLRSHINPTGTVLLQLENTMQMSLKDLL
Rango-impB inh: Rango-importin beta binding inhibition | Potency, µM (top dose mostly 92.2 µM), inactives show at the highest dose inhibition of complex formation | actives 0.031% (n = 340,000) | Rango CFP/YFP FRET sensor + importin beta, 45 min; active = rising FRET ratio curve, often small or poorly fitted; inconclusive = mostly compound fluorescence or quenching in the first reads; inactive = flat curves in all reads;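 further: potency means the concentration at half of the fitted maximal effect; 0% = DMSO wells and 100% = buffer wells lacking importin beta; nearly all actives have a fitted effect of over 15% in size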
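FRET biosensor (snurportin 1 IBB flanked by EYFP and cerulean), 50 nM, with compound 5 min, then 0.125 microM importin beta in PBS, 1 mM DTT, 0.02% Tween-20, 0.1% BSA. CFP/YFP ratio read after 45 min at room temperature; pre-read flags interference.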
miR-21 reporter: miR-21 reporter, rising signal; HeLa miR-21 FLuc reporter, luciferase, 48 h; Potency, µM (doses to about 38.3 µM), for inactives: top-dose reporter change, positive = more light; 340,000 tested, under 10 active; AID 2288; active = well fitted rising curve with a large enough effect; inconclusive = small, poorly fitted or top-dose-only effect; inactive = no such curve, though single readings can be large or run the other way;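 further: % of control where 0% means no effect; miR-21 action dims this reporter so a rising signal means less miR-21 action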
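Luminescence from a firefly luciferase reporter carrying a miR-21 binding site downstream, stably expressed under a CMV promoter in HeLa cells that make miR-21 endogenously, reports miRNA modulation after 48 h compound exposure up to approximately 40uM final.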
Rango release inh: prevents RanGTP from dissociating the Rango-importin beta complex; Biochemical FRET Rango-importin beta, RanGTP-induced dissociation; Potency, µM (top dose mostly 46.1 µM), without a hit: top-dose activity change, negative = inhibition; O95149+P62826; actives 0.071% (n = 340,000); active means falling FRET ratio curve, often poorly fitted, with flat reads before Ran was added; inconclusive means other falling curves, or compound fluorescence or quenching; inactive means flat or rising ratio curve;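 further: potency means the concentration at half of the fitted maximal effect; % of control where 0% means no effect; nearly all actives have a fitted effect of over 45% in size; -100% = wells without RanGTP and RCC1; the record marks most hits as doubtful in a second field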
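Compounds sat 5 min at room temperature with 0.1 uM Rango biosensor plus 0.25 uM importin beta, then FRET pre-read. RanGTP-RCC1 (0.6 uM Ran, 2mM GTP, 0.2 uM RCC1) added for 45 min, and the CFP/YFP post-read measured blocked complex dissociation.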
The depositor's hits bear a star; ? = inconclusive; · = not tested or not shown; & = joins results of further samples. Some of the compounds tested; count on the stated rates, not on these rows.

The line under a structure holds: GLA inh pH 4.5	Rango-impB inh	miR-21 reporter	Rango release inh
Cc1cccc(C(=O)Nc2cccc(OCC(=O)O)c2)c1
  2	0.1%	-4%	-10%
O=C(Nc1ccc2c(c1)CCC2)c1ccccc1Br
  10	-4.8%	-36%	-15%
CCC(C(=O)NCCCN1CC(C)CC(C)C1)n1ncn2c(cc3occc32)c1=O (centres undefined)
  ·	-0.5%	-2%	1%
COc1cc2[nH]c(=O)n(CCC(=O)N3CCN(Cc4ccccc4)CC3)c(=O)c2cc1OC
  7	1.3%	1%	8%
CCCc1ccc(C(=O)NNc2ccccc2F)cc1
  -6	6.0%	-27%	-6%
COc1ccccc1/C=C/C(=O)NCCC1=CCCCC1
  -2	1.9%	-60%	-6%
O=C(O)CCCNS(=O)(=O)c1ccc2c(c1)OCCCO2
  3	-4.6%	-2%	0%
CCOC(=O)c1cnc(-n2nc(C)cc2C)nc1Oc1ccc(C#N)cc1
  1	4.5%	3%	-17%
COc1ccc(C(C)=O)cc1CSc1nc2ccccc2c(=O)n1-c1ccccc1C
  -15	12%	-8%	4%
Cc1cc(Nc2ccc(Cl)cc2)nc(N)n1
  -5	5.5%	-56%	-4%
COc1cccc(N2C(=O)CC(Nc3ccc(N4CCOCC4)cc3)C2=O)c1 (centres undefined)
  2	-0.8%	-4%	-13%
O=C(Cc1ccccc1F)Nc1ccc(SC(F)F)cc1
  -7	-0.9%	-79%	4%
C=CCOc1ccc(/C=C/C(=O)OCC(=O)N2CCC(c3ccccc3)=N2)cc1
  ·	1.1%	·	4%
CCOC(=O)c1c(NC(=O)CSc2nnc(-c3c[nH]c4ccccc34)n2CCOC)sc2c1CCCCC2
  -16	-2.1%	20%	2%
COc1ccc(OC)c(C2=NOC(C(=O)NCc3cccnc3)C2)c1 (centres undefined)
  ·	-2.9%	7%	-1%
O=C(CCn1cnc2ccccc2c1=O)Nc1cccc(Cl)c1
  -7	-1.8%	-4%	11%
Cc1ccc2c(c1)sc1nc(=O)n(-c3ccc(Cl)cc3)c(=O)n12
  -9	4.8%	-12%&-10%	-11%
CCOC(=O)CN(C(=O)CNC(=O)c1ccco1)C(C(=O)NC1CCCC1)c1ccccc1OCC (centres undefined)
  4	0.1%	-6%	28%
COc1ccccc1NC(=S)NC(=O)Cc1ccc(Cl)cc1
  ·	-1.3%	0%	22%
COc1ccc(/C=N/NC(=O)c2cccc(NC(C)=O)c2)c(OC)c1
  -1	1.4%	-13%	7%
Cc1cc(C(=O)CSc2nc3ccc(Cl)cc3[nH]2)c(C)n1Cc1ccco1
  ·	-4.0%	·	14%
CCOC(=O)Cc1csc(NS(=O)(=O)c2cccc([N+](=O)[O-])c2)n1
  ·	0.2%	-4%	4%
COc1cccc(NC(=O)CNC(=O)Cn2cnc3sc4c(c3c2=O)CCCC4)c1
  ·	-1.9%	8%	-3%
Cc1ccccc1N/N=C/c1ccc(C#N)cc1
  0	-5.0%	-17%	16%
Cc1ccc(CNC(=O)CCC2CCCN(Cc3cccc4cccnc34)C2)o1 (centres undefined)
  0	-4.3%	1%	-10%
Cc1ccc(NC(=O)NCCCN2CCCC2=O)cc1C
  ·	-1.4%	-23%	-8%
Cc1cc(O)c(C2(O)C(=O)Nc3cc(Br)ccc32)cc1C (centres undefined)
  ·	0.5%	5%	1%
Cc1ccccc1C(=O)Oc1ccc(Sc2ccc(O)cc2)cc1
  -7	·	-10%	·
CCOCCCN1CC(C(=O)NCCc2ccc(C)cc2)CC1=O (centres undefined)
  8	2.4%	-2%	1%
CC(=O)Nc1ccc(/C=N/OCC(=O)Nc2ccc(C)cc2)cc1
  -3	2.7%	-44%	4%
O=C(C1CCCN(CCCc2ccccc2)C1)N1CCCCC1 (centres undefined)
  -4	-0.6%	2%	1%
CCOC(=O)CSc1nc2cc(C(=O)N3CCCC3)ccc2c(=O)n1Cc1ccccc1
  7	1.5%	-4%	3%
Cc1ccc(CN2C(=O)CCC2C(=O)NC(C)C)cc1 (centres undefined)
  -14	0.7%	-4%	10%
C/C(=N/NC(=O)CSc1nc2ccccc2n1C)c1ccc(O)cc1
  -4	3.3%	1%	5%
Cc1ccc(C(=O)Nc2cccc(NC(=O)c3cccnc3)c2)cc1
  ·	-0.3%	5%	2%
COC(=O)c1cc(-c2ccc(OC)c(OC)c2)c2c(=O)[nH]c(=O)n(C)c2n1
  ·	-0.6%	-11%&-22%	0%
CCn1cc(C(=O)Nc2ccccc2C(=O)OC)cn1
  ·	3.8%	·	-17%
COc1ccc(CN(C(=O)c2ccco2)c2ccc(Br)cc2)cc1OC
  11	-1.8%	-8%	2%
Cc1ccc(-c2cc(C(=O)N(C)Cc3cnn(C)c3C)c3cc(Br)ccc3n2)cc1
  -2	2.6%	14%	-9%
COc1ccc(NC(=O)C2CCCN2S(=O)(=O)c2cccc3cccnc23)cc1OC (centres undefined)
  ·	-1.4%	-33%&-38%	-2%
CCn1c(Cc2cccs2)nnc1SCC(=O)NC1CC1
  ·	0.6%	1%	3%
Cc1ccc(OC(=O)N2CCOCC2)cc1
  -1	1.7%	-21%	-16%
CCOc1ccccc1C1CC(c2ccc(Br)cc2)Nc2nc(N)nn21 (centres undefined)
  1	?	9%	-7%
C=CCNC(=S)Nc1ccc2nc(C)oc2c1
  6	0.5%	-10%	?
Cc1ccc(NC(=O)c2ccccn2)c(Br)c1
  -2	0.9%	-53%	11%
O=C(COC(=O)C1CCC(=O)N1)Nc1ccc(Cl)cc1Cl (centres undefined)
  6	-0.4%	-11%	-1%
CC(C)(C)N(Cc1cc2ccccc2[nH]c1=O)C(=O)c1cccnc1
  3	3.1%	-4%	5%
CC1Oc2ccccc2C=C1/C=N/NC(=O)c1ccccc1 (centres undefined)
  4	0.3%	-48%	-3%
CCN(CC)CCNc1ncnc2c1sc1nc(N3CCCC3)c3c(c12)CC(C)(C)OC3
  -20	-2.6%	27%	-3%
CCOC(=O)C1CCCN(C(=O)CN2C(=O)COc3ccc(C(C)(C)C)cc32)C1 (centres undefined)
  -8	-0.1%	-6%	-11%
CCOC(=O)c1c(C)n(C)c2ccc(OCC(O)CN3C(=O)c4ccccc4S3(=O)=O)cc12 (centres undefined)
  -2	0.6%	1%	0%
CCC(C)NC(=S)N(Cc1cc2cc(C)ccc2n2nnnc12)CC(C)(C)NC(C)C (centres undefined)
  ·	-3.6%	1%	-9%
O=C(Nc1ccc(NC(=O)c2cc3ccccc3o2)cc1)c1ccc2c(c1)OCCO2
  -5	-0.4%	7%	0%
COc1cccc(C(=O)NCCS(=O)(=O)NCc2ccco2)c1
  ·	3.3%	·	8%
CC(=O)Nc1ccc(S(=O)(=O)N(C)c2ccc(OCC(=O)Nc3ccccc3C(C)=O)cc2)cc1
  ·	-1.0%	·	-16%
COc1ccccc1CN1CC(C(=O)NC2CCOCC2)CCC1=O (centres undefined)
  ·	1.8%	-7%	2%
Cc1ccc(OCC(=O)N(Cc2ccccc2)C(C)(C)C)c([N+](=O)[O-])n1
  -2	-3.3%	-9%	-4%
CC(=O)Nc1ccc(NC(=O)Nc2ccc(C)c(C)c2)cc1
  8	3.2%	-15%	-6%
CCCCOc1ccc(/C(N)=N/O)cc1
  -7	0.7%	-35%	-9%
COc1ccc(/C=N/N2CCOCC2)cc1O
  -1	-0.7%	-24%	-7%

Single values from above.
Reading for COc1ccccc1/C=C/C(=O)NCCC1=CCCCC1 in GLA inh pH 4.5: -2
Reading for C/C(=N/NC(=O)CSc1nc2ccccc2n1C)c1ccc(O)cc1 in Rango release inh: 5%

Going on with the list.
The line under a structure holds: GLA inh pH 4.5	Rango-impB inh	miR-21 reporter	Rango release inh
Cc1cccc(C(OC(=O)c2ccco2)C(=O)NCc2ccccc2)n1 (centres undefined)
  -3	4.1%	-9%	-15%
CCN(CC(=O)NCc1cccs1)C(=O)c1ccccc1Cl
  2	2.8%	0%	11%
N#Cc1ccccc1OCC(=O)N1CCc2ccccc2C1
  2	-2.4%	-23%	0%
CCCc1cc(=O)oc2cc(OCC(=O)NCCc3c[nH]c4ccccc34)ccc12
  ·	0.9%	3%	1%
Cc1ccccc1C1CC(c2ccc(F)cc2)Nc2nc(N)nn21 (centres undefined)
  10	-4.2%	-9%	-14%
Cc1ccc(NC(=S)Nc2ccc3nc(-c4ccccn4)c(-c4ccccn4)nc3c2)cc1C
  -2	?	-12%	?
CCN1CCN(CCC(=O)Nc2ccc3c(c2)OCO3)CC1
  3	-3.0%	-4%	2%
Cc1cc(Cn2nc(-c3ccccc3)cc2C(=O)NCc2cccc(Br)c2)on1
  ·	-3.7%	·	1%
CCN(C(=O)COC(=O)c1ccccc1NC(=O)c1ccco1)C1CCS(=O)(=O)C1 (centres undefined)
  6	-1.8%	-10%	0%
COc1cc(/C=C(\C#N)C(N)=O)ccc1OS(=O)(=O)c1ccc(C)cc1
  -2	1.0%	-4%	7%
CC(C)CC(C(=O)O)C(C)CC(=O)Nc1ccn(-c2ccccc2)n1 (centres undefined)
  3	0.8%	-4%	1%
NC(N)=NCCC[C@H](NC(=O)OCc1ccccc1)C(=O)O
  10	5.6%	-13%	-3%
CCCn1c(SCC(=O)NCc2ccccc2)nnc1-c1ccncc1
  -2	1.4%	0%	-10%
O=C(Oc1c(Cl)cc(Cl)c2cccnc12)N1CCCCC1
  -11	1.3%	-18%	6%
Cc1ccc2sc(N(CCCN(C)C)C(=O)c3nc4ccccc4s3)nc2c1C
  2	-3.5%	-14%	18%
COC(=O)c1ccc(NC(=O)N2CCCC(C(=O)c3ccccc3OC)C2)cc1 (centres undefined)
  -13	-1.6%	11%	0%
CCN1CCN(c2nnc(-c3ccc(F)cc3)c3ccccc23)CC1
  ·	1.9%	5%	1%
Cc1nnc(SC(C)C(=O)Nc2ccc(N3CCOCC3)cc2)n1Cc1ccccc1 (centres undefined)
  ·	1.4%	·	-8%
CCOC(=O)C1CCN(C(=O)COC(=O)C2CCN(S(=O)(=O)c3ccc(C)c(C)c3)CC2)CC1
  ·	3.5%	·	-21%
O=c1cc(-c2ccc3c(c2)OCCO3)oc2ccc(Cl)cc12
  -6	1.6%	-70%	-10%
c1n[nH]c(SCCCCSc2ncn[nH]2)n1
  -7	0.3%	-3%	-20%
CC(C)(C)c1ccc(COC(=O)CN2C(=O)NC3(CCCC3)C2=O)cc1
  ·	-1.4%	·	8%
COC1=C(Nc2ccc(O)cc2)C(=O)c2ccccc2C1=O
  -3	-4.5%	-2%	1%
CCc1nn(C)c(-c2n[nH]c(=S)n2N)c1Cl
  11	1.1%	1%	-7%
O=C(CSc1nnc(CNC(=O)c2cccs2)o1)NCc1ccc(F)cc1
  11	2.5%	0%	3%
COc1cccc(NC(=O)CN2C(=O)NC(C)(CCC(C)C)C2=O)c1 (centres undefined)
  -4	-0.6%	-7%	-2%
Cc1ccc(S(=O)(=O)NC23CC4CC(CC(C4)C2)C3)cc1
  ·	0.5%	·	1%
CCOC(=O)C1=C(O)CSC1=Nc1ccc(Cl)cc1
  -2	3.1%	-6%	-5%
COc1ccc([N+](=O)[O-])cc1NC(=S)Nc1ccccc1
  -6	-2.8%	-1%	-4%
Nc1nc(CSc2ccccc2)nc(N2CCCCC2)n1
  -6	0.5%	-74%	1%
COc1ncnc2c1oc1nc(CC(C)C)c3c(c12)CC(C)(C)OC3
  2	1.3%	0%	1%
CC(=O)Nc1cccc(C(=O)/C=C/c2ccc(F)cc2)c1
  0	4.0%	?	16%
CCSc1nnc(-c2cccnc2)n1-c1ccc(C)c(Cl)c1
  -8	5.7%	-4%	10%
Cn1c(-c2ccc3nc(N)sc3c2)nc2cc(N)ccc21
  3	?	-70%	-20%
Cc1ccc(C)c(CN2CCC(CNC(=O)Nc3ccc(Cl)cc3)CC2)c1
  ·	-2.3%	-20%	12%
CCn1nnnc1SCC(=O)Nc1nc(C)c(C)s1
  -2	-2.7%	-32%	3%
